GIV-Gai inh = inhibitors of GIV peptide binding to Galpha-i3, primary screen, biochemical, fluorescence polarization, FITC-GIV GBA peptide, rat Galphai3 | Guanine nucleotide-binding protein G(i) subunit alpha-3 (Rattus norvegicus), P08753 | 90 min; hits give low values; scaled: aluminum fluoride 0%, vehicle 100% | percent of control (FP), % (test concentration not listed) | 210,000 tested, 0.42% active | AID 1224905, 2016;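 active = replicate mean at 85% of control or lower, very high polarization wells dropped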;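 also: wells of about 15 µL received 100 nL stock; the first replicate is given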
Target sequence (P08753 whole entry, looked up): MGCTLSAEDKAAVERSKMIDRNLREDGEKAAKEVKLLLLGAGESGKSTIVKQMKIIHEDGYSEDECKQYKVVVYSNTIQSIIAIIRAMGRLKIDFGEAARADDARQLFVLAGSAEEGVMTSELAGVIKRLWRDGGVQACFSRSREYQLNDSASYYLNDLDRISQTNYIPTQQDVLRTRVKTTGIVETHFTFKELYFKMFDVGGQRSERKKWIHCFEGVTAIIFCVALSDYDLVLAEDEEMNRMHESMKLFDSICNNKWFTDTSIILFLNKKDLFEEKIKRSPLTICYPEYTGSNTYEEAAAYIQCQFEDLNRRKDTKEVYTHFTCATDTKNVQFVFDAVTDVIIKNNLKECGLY
* marks the source's active call; other numbers are inactive results. A portion of the library (hit frequency here may not be typical).

The first three entries (preview)
SMILES	GIV-Gai inh
COc1ccc(C2CC(c3cccs3)=NN2C(=O)CSc2c[nH]c3ccccc23)cc1 (centres undefined)	121
Cc1ccc(C(=O)Nc2cnc(N3CCNCC3)c(C(=O)N(CC(C)C)CC(C)C)c2)cc1	101
COc1cccc(NC(=O)CSc2nc3ccccc3c(=O)n2CC2CCC(C(=O)NCC3CCCO3)CC2)c1 (centres undefined)	120

Results, previewed entries included:
SMILES	GIV-Gai inh
COc1ccc(C2CC(c3cccs3)=NN2C(=O)CSc2c[nH]c3ccccc23)cc1 (centres undefined)	121
Cc1ccc(C(=O)Nc2cnc(N3CCNCC3)c(C(=O)N(CC(C)C)CC(C)C)c2)cc1	101
COc1cccc(NC(=O)CSc2nc3ccccc3c(=O)n2CC2CCC(C(=O)NCC3CCCO3)CC2)c1 (centres undefined)	120
N#CC1=C(N)OC2=C(C(=O)CC(c3ccco3)C2)C1c1ccc(OCc2c(F)cccc2Cl)cc1 (centres undefined)	116
CCc1cc(C2CCCN2S(=O)(=O)c2ccc(Cl)cc2)on1 (centres undefined)	100
CC(C)(C)c1ccc(C2=NN(c3ccccc3)C3(SC(c4ccc([N+](=O)[O-])cc4)=NN3c3ccccc3)c3ccccc32)cc1 (centres undefined)	107
CCOc1ccc(-c2[nH]nc3c2C2(C(=O)N(CC(=O)OC)c4ccccc42)C(C#N)=C(N)O3)cc1OC (centres undefined)	107
COc1ccc(-c2c3c(c(-c4ccccc4)n2-c2ccc(N)cc2)C(=O)c2ccccc2C3=O)cc1	108
O=C(NCCc1ccccc1)c1cc(-c2ccc(F)cc2)nc2n[nH]c(-c3ccccc3)c12	104
N#Cc1c(NC(=O)Cn2cc(Br)c([N+](=O)[O-])n2)sc2c1CCC2	107
O=C1C2C3c4ccccc4C(c4ccccc43)C2C(=O)N1CCO (centres undefined)	113
COc1ccc(C2c3[nH]c4ccccc4c3CCN2C(=O)c2ccc(Cl)cc2)cc1 (centres undefined)	114
COc1cc(C2C3=C(CC(C)(C)CC3=O)OC3=C2C(=O)CC(C)(C)C3)ccc1OCC(=O)OCc1ccccc1	107
Fc1ccc(-c2nc3nc(-c4ccc(Cl)cc4Cl)cn3nc2-c2ccc(F)cc2)cc1	91
COCCn1c(C2CCN(S(=O)(=O)c3ccc(C(C)C)cc3)C2)nc2cccnc21 (centres undefined)	101
CC1(C(=O)Nc2ccc3c(c2)OC2(CCCCC2)O3)CC1(Cl)Cl (centres undefined)	110
Cc1ccc(-n2c(SCC(=O)Nc3ccc4[nH]c(=O)[nH]c4c3)nnc2-c2cc3ccccc3o2)cc1	106
CCNC(=O)c1ccc(-c2nc3cc(NS(=O)(=O)c4ccc(C(C)C)cc4)ccc3n2C)cc1	97
CCOC(=O)c1cccc(N2C(=O)C3C4c5ccccc5C(c5ccccc54)C3C2=O)c1 (centres undefined)	111
Cc1nc(-c2cc(NC(=O)c3ccc(F)c(Cl)c3)c(C)s2)no1	98
O=C(Nc1ccc2c(c1)OCO2)Nc1c(-c2cccnc2)[nH]c2ccc(F)cc12	106
CC(=O)c1c(C)nc(-c2sc3nc(-c4ccccc4)nc(N4CCCC4)c3c2C)nc1N	106
Cc1nc2cc(-c3noc(Cc4ccc(Cl)cc4)n3)ccc2o1	103
CCC(C)(N)c1nnnn1-c1ccccc1C (centres undefined)	109

Not a retest: entries from further up.
SMILES	GIV-Gai inh
COc1cc(C2C3=C(CC(C)(C)CC3=O)OC3=C2C(=O)CC(C)(C)C3)ccc1OCC(=O)OCc1ccccc1	107
Fc1ccc(-c2nc3nc(-c4ccc(Cl)cc4Cl)cn3nc2-c2ccc(F)cc2)cc1	91
COCCn1c(C2CCN(S(=O)(=O)c3ccc(C(C)C)cc3)C2)nc2cccnc21 (centres undefined)	101
CC1(C(=O)Nc2ccc3c(c2)OC2(CCCCC2)O3)CC1(Cl)Cl (centres undefined)	110
Cc1ccc(-n2c(SCC(=O)Nc3ccc4[nH]c(=O)[nH]c4c3)nnc2-c2cc3ccccc3o2)cc1	106
CCNC(=O)c1ccc(-c2nc3cc(NS(=O)(=O)c4ccc(C(C)C)cc4)ccc3n2C)cc1	97

Next section
SMILES	GIV-Gai inh
CC1(C)Nc2ccccc2-c2c1sn(Cc1ccc(Cl)cc1)c2=S	105
COc1ccc(-c2cc3nc4n(c(=O)c3s2)CCCCC4)cc1	115
Cc1[nH]n(-c2ccccc2)c(=O)c1C(c1ccccc1Cl)c1c(C)[nH]n(-c2ccccc2)c1=O	107
COc1ccc(CCNC(=O)CSc2nc3ccccc3c(=O)n2CCc2ccc(S(N)(=O)=O)cc2)cc1OC	106
CCCCNC(=O)c1cccc(-c2cnc3ccccc3c2)c1	100
COc1ccc(NC(=O)N2CCc3nc[nH]c3C2)c(OC)c1	103
Cc1ccc(C)c(Nc2nc3nonc3nc2N2CCCCC2)c1	109
O=C1CC(c2ccccc2C(F)(F)F)c2cc(Br)c3ccccc3c2N1 (centres undefined)	113
COc1cc(CN2CCCC2c2cc(C)on2)ccc1OC(C)C (centres undefined)	114
Cc1ccc(-c2nc3scc(CCNC(=O)COc4ccccc4)n3n2)cc1	104
CCOc1ccc2c(c1)N(C(=O)Cc1ccc(F)cc1)C(C)(C)C(=S)C2=C1SC(C(=O)OC)=C(C(=O)OC)S1	104
CCCCCCCCCCCCC(=O)OC1CCC2(C)C3CCC4(C)C(C(C)CCCC(C)C)CCC4C3CC(Br)C2(Br)C1 (centres undefined)	107
Cn1cccc1C(=O)C(=O)N1CCc2ccccc2C1	104
O=C(Nc1ccc2c(c1)OCO2)c1ccc(-c2cc(N3CCOCC3)ncn2)cc1	106
O=C(c1ccc(Cl)cc1)N1N=C(C(F)(F)F)CC1(O)c1cccnc1 (centres undefined)	115
CC(C)(C)C(=O)[C@@H]1[C@@H](c2ccc(Cl)cc2)C(C#N)(C#N)[C@H]2C=Cc3ccccc3N12	125
Cn1c(=O)n(CC(=O)N2CCN(c3ccc([N+](=O)[O-])cc3)CC2)c(=O)c2ccccc21	102
O=C(Nc1ccc2ccccc2c1)/C(=C/c1ccc2c(c1)OCO2)NC(=O)c1ccccc1Br	119
Cc1ccc(N2C(=O)c3ccccc3NC2c2ccc(OCc3ccccc3Cl)cc2)cc1C (centres undefined)	104
Cc1nc(=S)c2c([nH]1)-c1ccccc1CC21CCCCC1	106
Cc1nn2c(S(=O)(=O)N3CCCC3)c(C)nc2s1	99
Cc1ccc(Cl)cc1NC(=O)C1CCN(c2ncnc3onc(-c4ccc(F)cc4)c23)CC1	98
CCOC(=O)c1[nH]c(C)c(CCC(=O)N(C)Cc2ccccc2)c1C	109
COc1ccccc1CC(=O)Nc1ccc(-c2noc(-c3ccc(F)cc3)n2)cc1	99
CCOc1ccc(-c2nnc3s/c(=C\c4ccc(Cl)cc4)c(=O)n23)cc1	123
COCCNc1ccc2nnc(C)n2n1	104
O=C(O)c1ccc(N2C(=O)/C(=C/c3ccc(-c4ccc(Br)cc4)o3)C=C2c2ccccc2)cc1	161
Cc1ccc(N2C3c4ccccc4N(S(=O)(=O)c4ccc(C)cc4)C2c2ccccc2N3S(=O)(=O)c2ccc(C)cc2)cc1	108
O=C(NCc1ccccn1)c1ccc2c(=O)n(CC3CCCO3)c(=S)[nH]c2c1 (centres undefined)	105
COCCN(CCOC)C(=O)c1c[nH]c2ccc(S(=O)(=O)N(C)c3ccc(Cl)cc3)cc2c1=O	105
CC(C)S(=O)(=O)N1CCCN(C(=O)C2CCC2)CC1	100
COC(=O)C1C(=O)NC(SCC(=O)Nc2cc(Cl)ccc2OC)=C(C#N)C1c1ccc(Cl)cc1 (centres undefined)	113
CCOC(=O)c1[nH]c(C)c(CN(Cc2ccc(OC)cc2)C(=O)Nc2ccc3c(c2)OCO3)c1C	100
O=c1n(Cc2ccccc2)nc2c(S(=O)(=O)N3CCOCC3)cccn12	104
c1nc(N2CCCCC2)c2sc3nc(N4CCOCC4)c4c(c3c2n1)CCCC4	108
COc1ccccc1-c1cc(C(=O)N2CCCC2c2cc(C)no2)no1 (centres undefined)	110

Three of the compounds above, as labelled records.
O=C(O)c1ccc(N2C(=O)/C(=C/c3ccc(-c4ccc(Br)cc4)o3)C=C2c2ccccc2)cc1
  GIV-Gai inh = 161
COc1ccccc1-c1cc(C(=O)N2CCCC2c2cc(C)no2)no1 (centres undefined)
  GIV-Gai inh = 110
COC(=O)C1C(=O)NC(SCC(=O)Nc2cc(Cl)ccc2OC)=C(C#N)C1c1ccc(Cl)cc1 (centres undefined)
  GIV-Gai inh = 113

Going on with the list:
SMILES	GIV-Gai inh
COc1ccc(CNC(=O)C2CCN(c3ccc4cc(S(=O)(=O)N5CCCCC5)ccc4n3)CC2)cc1	102
CCCN1CCN(C(=O)CN(C)S(=O)(=O)c2cc3c(cc2Cl)NC(=O)CO3)CC1	102
COC(=O)CCC/C=C1/SC[C@@H](NC(=O)c2ccccc2)/C1=N/O	108
COc1ccc(NC(=O)NCCc2nc(-c3ccc(F)cc3)n[nH]2)c(OC)c1	100
O=C(CCl)NCC1(c2ccccc2)CCCC1	107
COc1ccc(N2C(C(C)=O)=NN(c3ccc(Cl)cc3)C2c2ccc(OCc3c(Cl)cccc3Cl)c(OC)c2)cc1 (centres undefined)	104
O=S(=O)(c1cc(-c2noc(C3CCC3)n2)cs1)N1CCN(c2ccccc2F)CC1	102
Cc1cccc(N2CCN(c3ncc(S(=O)(=O)c4ccc(C)c(C)c4)c(N)n3)CC2)c1	103
N#CC1=CN(c2ccc(F)cc2Cl)c2ccc(F)cc2S1(=O)=O	100
COc1ccccc1NC(=O)CSc1nc2c(sc3ccccc32)c(=O)n1CCN(C)C	108
O=C(NC1CCS(=O)(=O)C1)c1cc2c(s1)CN(C1CC1)C2 (centres undefined)	101
O=C1CSC(c2cc3c(cc2Br)OCO3)N1c1ccc(Cl)cc1 (centres undefined)	113
COc1ccc(Nc2nc(Cl)nc(NC(C)C)n2)c(OC)c1	109
CCOC(=O)C1=NN(c2ccccc2)C2C(=O)N(c3ccccc3Cl)C(=O)C12 (centres undefined)	105
Cc1cc(C)nc(NS(=O)(=O)c2ccc(NC(=O)c3cccc(NC(=O)C(F)(F)F)c3)cc2)n1	110
Cc1[nH]c(C)c(S(=O)(=O)N2CCCC(C)C2)c1-c1nnc(C2CCC2)o1 (centres undefined)	108
CC(=O)C1Cn2c(nc3c(c2=O)C2(CCCCC2)Cc2ccccc2-3)S1 (centres undefined)	113
Cc1cccc(C2CC(=O)Nc3c2c(C)nn3-c2ccc3nnc(C)n3n2)c1 (centres undefined)	102
CCn1cnc2sc(C(=O)N3CCC(C(N)=O)CC3)c(C)c2c1=O	103
Cc1ccc(O)c(C2=Nc3ccccc3N=C(c3cccc(Br)c3)C2)c1	105
O=S(=O)(c1ccccc1)N1CCN(c2ncnc3c2nnn3-c2ccc(F)cc2)CC1	98
CCOc1ccc(N2C(=O)c3ccccc3C2C(=O)NCCC(C)C)cc1 (centres undefined)	107
COc1ccc(-c2nc(-c3ccc(-c4ccccc4)cc3)c(-c3ccc(-c4ccccc4)cc3)[nH]2)cc1OC	106
CC1(C)CC(=O)C(C(C2=C(O)CC(C)(C)CC2=O)c2cccc(O)c2)C(=O)C1 (centres undefined)	109
COc1cccc(N2C(=O)/C(=C/c3ccc(-c4ccc(Br)cc4)o3)C=C2c2ccccc2)c1	123
C[N+](C)(CCN1C(=O)C2C(c3ccccc3)C=CC(c3ccccc3)C2C1=O)CC(=O)O (centres undefined)	111
COc1ccc(Cl)cc1NC(=O)c1cc(S(=O)(=O)N2CCN(c3ccccc3F)CC2)ccc1F	103
O=C(c1ccccc1)N1CCN(C(=O)c2ccccc2)C2C1N(C(=O)c1ccccc1)CCN2C(=O)c1ccccc1 (centres undefined)	108
Cc1ccc(Cn2c(CNC(=O)C(C)Cn3ccnc3C)nc3cccnc32)cc1 (centres undefined)	119
CCC(=O)Nc1ccc(-c2cc(C(=O)Nc3ccccc3Cl)c3ccccc3n2)cc1	104
O=C(CSc1nnc2c(=O)n(-c3ccccc3)ccn12)c1ccc(Br)cc1	109
CC(C)NC(=O)c1cccc(-n2cnnc2)n1	99
Cc1cc(C)c(S(=O)(=O)Nc2cccc(C(=O)N3CCCC3C(=O)NCC3CCCO3)c2)c(C)c1 (centres undefined)	102
Cc1ccc(NC(=O)Nc2ccc(CCc3nc4ccccc4[nH]3)cc2)cc1C	123
CC(C)NC(=O)C1CC(=O)N(c2ccc3c(c2)CCN3C(=O)C2CC2)C1 (centres undefined)	101
CC1(C)CC(=O)C2=C(C1)Nc1c(ccc3ccccc13)C2c1cc2c(cc1Br)OCO2 (centres undefined)	112
CC1CN(C=O)c2ccccc2N(Cc2ccccc2)C1=O (centres undefined)	116
CCOC(=O)C1=C(C)N=c2s/c(=C/c3cc(OC)c(O)cc3Br)c(=O)n2C1c1ccccc1 (centres undefined)	212
Cc1sc(-c2cc(C(F)(F)F)on2)cc1S(=O)(=O)N1CCCCCC1	100
COc1ccc(CCNS(=O)(=O)c2cccc3nsnc23)cc1OC	119
O=C(c1ccccc1Br)N1CCN(Cc2cc(=O)n3nc(-c4ccccc4F)sc3n2)CC1	98
CCc1ccccc1NC(=O)c1sc2nc3c(c(-c4ccco4)c2c1N)CCC3	103
COCCCNC(=O)Cn1ccc2c(SCc3ccccc3)nccc21	104
Cc1cc2c(cc1C)-c1c(sn(-c3ccc(C(C)C)cc3)c1=S)C(C)(C)N2	104
CCOC(=O)N1CCC(NC(=O)c2ccc3c(c2)nc(C)n3-c2ccc(OCC)cc2)CC1	107
CCCS(=O)(=O)N1CCCC(c2nc(CNC(C)=O)cs2)C1 (centres undefined)	98
Cc1ccccc1-c1noc2ncnc(N3CCCC3)c12	104
CCOC(=O)C1C(=O)NC(SCC(=O)Nc2ccccc2)=C(C#N)C1c1ccccc1Cl (centres undefined)	110
CCOc1ccc(NC(=O)CSc2nc3n[nH]c(C)c3c(=N)n2-c2ccc(Br)cc2)cc1	102
Cc1cc(-c2csc(S(=O)(=O)NCc3ccccc3)c2)on1	103
Clc1ccc(CN2CCN(Cc3ccc(Cl)cc3)C2c2cccc(Br)c2)cc1	108
O=[N+]([O-])c1cccc(CSc2nc3ccccc3n2S(=O)(=O)c2ccccc2)c1	105
